# Source: PubChem (National Center for Advancing Translational Sciences (NCATS))
# YjeE inh = qHTS Assay for Inhibitors of YjeE | tRNA threonylcarbamoyladenosine biosynthesis protein TsaE (Escherichia coli (strain … | AID 605, 2007 | purified YjeE, fluorescence polarisation of a bound ADP probe | Potency, µM | 71,000 tested, 0.05% active; active = well fitted falling curve; inconclusive = weaker or top-dose-only fall, or a rising curve; inactive = flat or poorly fitted curve;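 further: top concentration of the series not given in the record; excess ADP was the control for the full effect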
#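 Fluorescence polarization of a BODIPY Texas Red–ADP probe (2 uM) bound to purified YjeE (10 uM) was read after 15 min room-temperature incubation with compounds. Loss of polarization marks inhibitors; ADP serves as titrated control.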
# Bst PK mod = Pyruvate Kinase; 51,000 tested, 1.2% active; Potency, µM; partly purified Bacillus stearothermophilus pyruvate kinase, luminescence ATP production; ribose 5-phosphate activator present at AC10; in the data active means potency below about 11 µM; inconclusive means mostly about 12 µM to 25 µM; inactive means weaker than that;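 the screen sought inhibitors and activators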;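 further: potency means the concentration at half of the fitted maximal effect; scaled between full activation by ribose 5 phosphate and full inhibition by luteolin; about four in five hits inhibit and the cells do not say which; series up to 57 µM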
# Numbers without * were called inactive; i = inactive; nt = no result given. This is a subset; count on the stated rates, not on these rows.
molecule	YjeE inh	Bst PK mod
COC(=O)C1=C(C)N(c2ccc(Cl)c(Cl)c2)C(=O)C1	i	>57
COc1ccc(N(Cc2cc3ccc(C)cc3[nH]c2=O)C(C)=O)cc1	i	>57
O=C(CCC1N=C2c3ccccc3N=C(SCc3ccc(Cl)cc3)N2C1=O)NCc1ccco1 (stereo not drawn)	i	>11
O=C(Nc1ccc2c(c1)OCO2)c1cnn2c1NC(c1ccco1)CC2C(F)(F)F (stereo not drawn)	i	>57
Cc1cc(C(=O)COc2cccc3cccnc23)c(C)n1C	i	>57
N#Cc1ccccc1Cn1c(=O)n(CCCC(=O)NCc2ccc3c(c2)OCO3)c(=O)c2ccccc21	i	>57
CN(C)c1ccc(C2(c3ccc(N(C)C)cc3)OC(=O)c3cc(N(C)C)ccc32)cc1	i	nt
CC1CC(C)(C)Nc2ccc(OC(=O)c3ccco3)cc21 (stereo not drawn)	i	nt

# Full records, quoted from the list. Values in the order: YjeE inh	Bst PK mod
# Entry for Cc1cc(C(=O)COc2cccc3cccnc23)c(C)n1C = i	>57
# Entry for CC1CC(C)(C)Nc2ccc(OC(=O)c3ccco3)cc21 (stereo not drawn) = i	nt

# The list continues.
molecule	YjeE inh	Bst PK mod
C=CCOC(=O)C(C#N)c1nc2ccccc2nc1N1CCCC1 (stereo not drawn)	i	>57
CCOC(=O)Cc1csc(NC(=O)CS(=O)(=O)Cc2ccccc2)n1	i	>57
CN(C)c1ccc(-c2cncnc2Nc2ccc(F)cc2)cc1	i	nt
C=CCSc1nc2ccccc2c(=O)n1Cc1ccco1	i	nt
O=C(NCc1ccccn1)c1ccc(Br)s1	i	>57
CCC/C=C(\CCC)C(NC(=O)c1cccs1)c1ccc(C(=O)OC)cc1 (stereo not drawn)	i	nt
O=C(OC(C(=O)NCC1CCCO1)c1ccccn1)c1cccs1 (stereo not drawn)	i	>57
Clc1ccc(CSc2nncn2-c2ccccn2)cc1	i	>57
CCn1c(CC(=O)Nc2cccc(OC)c2)nnc1SCC(=O)N1CCN(c2ccccc2)CC1	i	>57
CSc1nnc(Cc2cc(=O)[nH]c(=O)[nH]2)n1-c1cc(C)ccc1C	i	>57
O=C(c1cc(S(=O)(=O)N2CCOCC2)c(Cl)cc1Cl)N1CCCCC1	i	>57
Cc1cc(C)nc(N2CCC(C(=O)NCc3cccs3)CC2)n1	i	>57
COc1cc(N=Nc2cccc(S(N)(=O)=O)c2)c2ccccc2c1N	i	nt
COC(=O)c1ccc(NC(=O)CN2CCN(c3cccc(Cl)c3)CC2)cc1	i	>57
CCOC(=O)C1(c2nc(N)cs2)COC(=O)C1 (stereo not drawn)	nt	>26
C/C=C1\CC2C=CC1C2 (stereo not drawn)	i	nt
O=C(NCCF)[C@H]1C[C@@H]1[C@H](NP(=O)(c1ccccc1)c1ccccc1)c1ccccc1	i	nt
CCOC(=O)CNC(=O)CSc1nnc(-c2ccccc2)n1Cc1ccco1	i	>57
CCOC(=O)CN(C(=O)c1ccccc1)c1ccccc1C	i	nt
c1ccc2c(Cn3nnc4ccccc43)cccc2c1	i	>11
CCCCOC(=O)C1C2C=C[C@]3(CN(CCCOC)C(=O)[C@H]13)O2 (stereo partly drawn)	i	>57
CCOC(=O)C1CCN(CC(O)COc2ccc(C(C)(C)C)cc2)CC1 (stereo not drawn)	i	>57
Cc1ccc(-c2cn3cccnc3n2)cc1NC(=O)c1c(-c2ccccc2Cl)noc1C	i	>57
O=S(=O)(c1ccc(Oc2ccc(Br)cc2)cc1)N1CCOCC1	i	>57
CCN(CC)CCCN1C(=O)C(O)=C(C(=O)c2ccco2)C1c1ccc(OC(C)C)cc1 (stereo not drawn)	i	>57
O=[N+]([O-])c1cccc(/C=N\NC2=CS(=O)(=O)C=C2)c1	i	nt
O=S(=O)(c1ccccc1)N1CCC2(CCCN(c3ncccn3)C2)CC1	i	nt
Cn1c(SCc2ccccn2)nnc1-c1cnccn1	i	>57
O=C(CCNS(=O)(=O)c1ccc(Cl)cc1)NCc1cccnc1	i	i
CC1CCCCN1C(=O)CSc1nc(-c2ccccc2)cc(=O)[nH]1 (stereo not drawn)	i	>57
CCOC(=O)N1CCN(C(=O)CCSc2ccc(C)cc2)CC1	i	>57
Cc1nnc(N2C(=O)c3oc4ccccc4c(=O)c3C2c2ccco2)s1 (stereo not drawn)	i	nt
O=C(C1CC1)N1CCN=C1SCc1ccc(F)cc1	i	nt
Cn1c(SCC(N)=O)nnc1C1CCN(S(=O)(=O)c2ccccc2C(F)(F)F)CC1	i	>57
CCOC(=O)c1sc(NC(=O)CSc2nnc(C)s2)c(C(=O)OCC)c1C	i	>57
CCOC(=O)N1CCC(NC(=O)CCc2nc(-c3ccccc3F)no2)CC1	i	>57
CC(C)CCNC(=O)C(c1ccco1)N(Cc1ccccc1)C(=O)c1snc(C(N)=O)c1N (stereo not drawn)	i	>57
CCCN1CCN(C(=O)Cn2cccc2C(=O)c2ccccc2)CC1	i	nt
COC(=O)C(Cc1ccc(O)cc1)NC(=O)c1ccccc1OC (stereo not drawn)	i	nt
C/C=C/c1ccc(OCCCCn2cncn2)c(OC)c1	i	>57
CCC(Sc1nnnn1C)C(=O)Nc1ccc(C(C)=O)cc1 (stereo not drawn)	i	>57
O=[N+]1C2=C(CCCC2)N([O-])C12CCCC2	i	>57
COc1ccc(OCC(=O)Nc2cccc3ncccc23)cc1	i	>57
COCCNc1ncnc2ccc(-c3ccc(C(=O)N(C)C)cc3)cc12	i	nt
CCCn1c(SCC(=O)NC(=O)Nc2ccc(C)cc2C)n[nH]c1=O	i	>57
COc1ccc(S(=O)(=O)Cc2ccc(C(=O)N3CCN(c4cccc(C)c4)C(C)C3)o2)cc1 (stereo not drawn)	i	nt
CC1=C/C(=C/N(C)c2ccccc2)C(=O)S1	i	>57
COCCNC(=O)Cn1cc2c(n1)CCCCC2	i	nt

# The list goes on; it opens with the 5 that closed the last part.
molecule	YjeE inh	Bst PK mod
COCCNc1ncnc2ccc(-c3ccc(C(=O)N(C)C)cc3)cc12	i	nt
CCCn1c(SCC(=O)NC(=O)Nc2ccc(C)cc2C)n[nH]c1=O	i	>57
COc1ccc(S(=O)(=O)Cc2ccc(C(=O)N3CCN(c4cccc(C)c4)C(C)C3)o2)cc1 (stereo not drawn)	i	nt
CC1=C/C(=C/N(C)c2ccccc2)C(=O)S1	i	>57
COCCNC(=O)Cn1cc2c(n1)CCCCC2	i	nt
C[C@H](CO)NC(=O)[C@H]1C[C@@H]1[C@H](NP(=O)(c1ccccc1)c1ccccc1)c1ccccc1	i	nt
CCN1c2ccccc2-c2nc3ccccc3n2C1c1ccncc1 (stereo not drawn)	i	>57
O=C(c1cn(-c2ccccc2)nc1-c1ccncc1)n1nnc2ccccc21	i	>57
NC(CSC12CC3CC(CC(C3)C1)C2)C(=O)O (stereo not drawn)	i	>57
CCOC(=O)C1CCCN(C(=O)c2cn(CC(C)C)c(=O)c3cc(OC)c(OC)cc23)C1 (stereo not drawn)	i	>57
Nc1ncnc2c1ncn2C1CCCC1	i	nt
c1ccc2c(c1)oc1c(NCCCn3ccnc3)ncnc12	i	>57
O=C(NCC1CCCO1)C1CCC(N2C(=O)c3ccccc3C2=O)CC1 (stereo not drawn)	i	nt
CCC(=O)Nc1ccc2oc(-c3cccc(C)c3)nc2c1	i	2.1*
CCOC(=O)c1ccc(NC(=O)Nc2ccc(OC)c(OC)c2)cc1	i	>57
Cc1cc(C)n(C(=O)COc2c(C)cccc2C)n1	i	>57
O=C(NCc1nc2ccccc2[nH]1)c1ccc(S(=O)(=O)N2CCOCC2)cc1	i	>57
N=C(N)SCc1nc(-c2ccc(Cl)cc2)no1	i	nt
CN(Cc1nc(-c2ccncc2)no1)S(=O)(=O)c1ccc(Cl)cc1	i	>57
O=C(O)c1ccc(CNc2ccccc2C(=O)O)cc1	i	>57
CN(Cc1cc2ccccc2[nH]c1=O)S(=O)(=O)c1ccccc1	i	>57

# Shown as a hit in Bst PK mod (from the list above):
molecule	YjeE inh	Bst PK mod
CCC(=O)Nc1ccc2oc(-c3cccc(C)c3)nc2c1	i	2.1*

# The results go on:
molecule	YjeE inh	Bst PK mod
O=C(CCN1CCN(CC(=O)Nc2ccccc2Cl)CC1)Nc1ccccc1F	i	>57
O=C(COc1ccc(Cl)cc1)NCc1nnc(SCC(=O)Nc2ccccc2)o1	i	>57
O=C(C1CCCCC1)N1CCN(c2ncccn2)CC1	i	nt
CCOC(=O)c1[nH]c(C)c(C(=O)Nc2ccc3c(c2)CCC3)c1C	i	>57
Cc1ccc(-c2noc(-c3ccccc3Br)n2)cc1	i	nt
CN=c1sc2ccccc2n1CC(O)COc1ccccc1 (stereo not drawn)	nt	>26
CSCCC1NC(=O)NC1=O (stereo not drawn)	i	>57
COC(=O)c1nc(NC(=O)C(C)(C)C)n[nH]1	i	>57
CCCC(=O)Nc1nnc(CC(=O)OCC)s1	i	>57
N#Cc1nc(-c2ccc(OCc3ccc(Cl)cc3)cc2)oc1NCc1cccnc1	i	2.7*
C[C@H]1C[C@@H]2[C@@H]([C@@H](O)C[C@@]3(C)[C@H]2CC[C@]3(O)C(=O)CO)[C@@]2(C)C=CC(=O)C=C12	i	nt
COc1ccc2ccccc2c1/C=C\C(=O)c1ccccc1	i	nt
CCOC(=O)N1CCN(c2c(-c3ccccc3)c3cc(Cl)ccc3[nH]c2=O)CC1	i	>57
Cc1ccc(S(=O)(=O)CCSc2nc(C)cc(C)c2C#N)cc1	i	>57
CC1CCCCC1NC(=O)Cn1cnc2ccccc2c1=O (stereo not drawn)	i	>57
Cc1c[n+]([O-])n(-c2ccc(C(=O)O)cc2)n1	i	>57
CCOC(=O)C1=C(C)NC(=O)NC1c1ccc(F)cc1 (stereo not drawn)	i	>57
CC(=O)c1ccc(NC(=O)c2ccc(S(=O)(=O)N3CCCC3)cc2)cc1	i	>57
Cc1cc(N2CCN(C)CC2)n2nc(-c3ccc(Cl)cc3)nc2n1	i	nt
COc1cccc(CSc2nnc(-c3ccco3)n2C)c1	i	>57
CCC(C)(C)n1nnnc1C(c1cc2cc(C)ccc2[nH]c1=O)N1CCCC1 (stereo not drawn)	i	>57
COc1ccc(N2CCN(CCNC(=O)c3nnc(Cc4c(F)cccc4Cl)o3)CC2)cc1	i	>57
Cc1ccc(-n2c(N)c(C(=O)N3CCN(C)CC3)sc2=S)cc1	i	>57
COc1ccc(CCC(=O)Nc2ccc(Br)cn2)cc1	i	>57
CC1CCN(C(=O)Cn2c(=O)oc3ccccc32)CC1	i	>57
Cc1ccc(-c2ccc(CCC(=O)O)n2Cc2ccco2)cc1	i	>57
CCC/C=C(\CCC)C(NC(=O)c1ccc(C(F)(F)F)cc1)c1ccccc1 (stereo not drawn)	i	nt
COc1ccccc1OCC(=O)Sc1ccc(C)cc1	i	nt
CCOc1ccccc1OCC(=O)Nc1nnc(C)s1	i	>57
CC(=O)N(C)c1ccc(OCC(O)COc2ccc(N(C)C(C)=O)cc2)cc1	i	>57
Cn1c(=O)c2cc(S(=O)(=O)NC(C(=O)Nc3cccnc3)c3ccccc3)ccc2n(C)c1=O (stereo not drawn)	i	nt
COc1ccc(-c2cc3ccc(OCc4nn[nH]n4)cc3oc2=O)cc1OC	i	nt
Cc1ccc(N(CC(=O)NCc2ccco2)C(=O)CCC(=O)Nc2ccccn2)cc1C	i	>57
CCCC/C=C/C(NC(=O)OCc1ccccc1Cl)c1ccccc1 (stereo not drawn)	i	nt
CCOC(=O)N1CCC(NC(=O)C2CCN(S(=O)(=O)c3cccs3)CC2)CC1	i	>57
CN(c1cccc(NC(=O)CCSc2ccccc2)c1)S(C)(=O)=O	i	>57
O=C1CCc2cc(S(=O)(=O)N3CCN(c4cccc(C(F)(F)F)c4)CC3)ccc2N1	i	>57
O=C(CSc1nc2ccccc2o1)N1CCCC1	i	>57
Cc1[nH]nc2c1C(c1ccc(-c3ccccc3C#N)o1)C(C#N)=C(N)O2 (stereo not drawn)	i	>57
O=c1c2ccccc2nnn1CSc1nc2ccccc2c(=O)n1Cc1ccco1	i	>57
CCCC1C2C(=O)N(c3ccccc3OC)C(=O)C2ON1c1ccccc1 (stereo not drawn)	nt	>26
COC(=O)C(C)Sc1nc2c(c(=O)n(C)c(=O)n2C)n1Cc1cccc(C)c1 (stereo not drawn)	i	>57
O=C(CN1CCN(c2nc(-c3ccc(F)cc3)cs2)CC1)NCc1ccc2c(c1)OCO2	i	>57
COc1ccc(NC(=O)N2CCC3(CC2)CCN(C(=O)c2cccn2C)CC3)cc1	i	nt
CC1CC(c2ccccc2)n2nc(N3C(=O)c4ccccc4C3=O)nc2N1 (stereo not drawn)	i	>57
O=C(O)CCCNS(=O)(=O)c1ccc(F)cc1	i	nt
Cc1ccccc1CS(=O)(=O)Cc1ccc(C(=O)NCc2ccco2)o1	i	>57
CC(CN1CCOCC1)(NS(=O)(=O)c1ccccc1)c1ccccc1 (stereo not drawn)	i	>57
OC(C#CCN1CCOCC1)(c1ccccc1)C1CC1 (stereo not drawn)	i	>57
O=C(CSc1ccccc1)NCc1cccnc1	i	nt
COc1ccc(C2C(C(=O)N3CCN(c4ccccc4)CC3)c3ccccc3C(=O)N2C)cc1 (stereo not drawn)	i	>57
